# UCH37 inh – blocks the human deubiquitinase UCH37; purified proteasome/UCH37, Ub-AMC cleavage fluorescence; inhibition, % (no concentration beside the values); hit rate 0.33% among 330,000; AID 588478;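 active = mean of two replicates above 20%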;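 note: 0% = compound-free wells with enzyme and 100% = wells lacking proteasome; stock transfer was 100 nL into about 20 µL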
# Target sequence (Q9Y5K5 whole entry, looked up): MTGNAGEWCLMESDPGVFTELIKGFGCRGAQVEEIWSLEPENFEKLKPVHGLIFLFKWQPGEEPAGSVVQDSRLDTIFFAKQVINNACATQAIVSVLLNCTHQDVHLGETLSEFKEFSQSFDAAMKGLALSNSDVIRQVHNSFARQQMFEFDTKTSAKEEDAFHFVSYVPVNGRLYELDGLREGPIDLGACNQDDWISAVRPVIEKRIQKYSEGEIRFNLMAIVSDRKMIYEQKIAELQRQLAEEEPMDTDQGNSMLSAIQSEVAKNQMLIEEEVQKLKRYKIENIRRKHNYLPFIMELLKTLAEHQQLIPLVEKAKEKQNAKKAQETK
#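 assay system = human UCH37 enzyme supplied as purified proteasome complex | amount = proteasome at 0.15 nM in the dispensed enzyme solution | schedule = 30 min compound-proteasome preincubation then 25 min substrate reaction, room temperature | measured by = fluorescence, ex 355 nm, em 460 nm | benchmarks = no-proteasome wells (full inhibition) and compound-free wells (no inhibition)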
# T cruzi repl – T. cruzi replication inhibition. AID 1885. inhibition, % (concentration not given with the values). hit rate 1.4% among 300,000. T. cruzi beta-gal in NIH3T3, luminescence, 90 h;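 active = mean inhibition across valid replicates above about 55%, limit read from the data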;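 note: signal also drops with host cell toxicity which is not excluded here; 0% = plate median of DMSO wells and 100% = zero luminescence signal; higher percent means less beta-gal luminescence so fewer parasites; stock transfer was 50 nL into about 50 µL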
# E coli growth – inhibitors of Escherichia coli growth | AID 1053175 | OD600, 23 h; active compounds read low | hit rate 0.21% among 330,000 | OD600 absorbance (no concentration beside the values);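 active = OD600 absorbance below the run mean of sample wells minus 3.6 SD, in any replicate, cut at about 0.56 in these data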;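 note: stock transfer was 300 nL into about 60 µL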
# Bfl-1 A1 inh – inhibitors of the anti-apoptotic protein A1, read as caspase activation; MEF A1-2A-BIM cells, Caspase-Glo 3/7 luminescence, 3 h; percent of clofoctol response, vehicle zero; caspase activation, % (concentration not given with the values); hit rate 0.066% among 330,000;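 active = over half of replicate activation scores above 10%, or exactly half above 10 with the replicate mean above 10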;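 note: wells of about 30 µL received 50 nL stock; many hits fall short of the cut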
# An asterisk follows results filed as active; i = inactive; nt = not tested or not shown. Only part of the results is shown; the hit share may differ from the screen's.
SMILES,UCH37 inh,T cruzi repl,E coli growth,Bfl-1 A1 inh
Cc1cc(=O)n2nc(N3CCCC(C(=O)NCCCN4CCc5ccccc5C4)C3)sc2n1 (centres undefined),-1.9,10,0.74,nt
CC(C)C(=O)Nc1ccc(C(=O)N2CCN(C(=O)c3ccco3)CC2)cc1,1.8,-4,0.64,nt
O=C(Nc1ccc(-c2nnc3n2CCCCC3)cc1)c1cnccn1,1.7,-10,0.72,nt
Cc1ccc(S(=O)(=O)NCC(=O)Nc2ccc(C(F)(F)F)cc2)cc1,1.9,-18,0.74,nt
O=C(COc1ccc(Cl)cc1Cl)NCc1ccncc1,2.0,-5,0.63,nt
Cc1ccc(C(=O)/C=C/c2c(C)nn(-c3ccccc3)c2Cl)cc1,7.6,12,0.69,nt
COc1ccc(-c2c[n+]3c4n2CCCCC4=C(c2ccccc2)C3)cc1,i,62*,0.62,nt
CN1CCN(c2nc3c(c(=O)[nH]c(=O)n3C)n2CCOc2ccccc2)CC1,-7.2,-11,0.76,nt
CC(C)OC(=O)[C@H]1[C@H](c2ccc(Cl)cc2)[C@@](C#N)(C(N)=O)[C@@H]2C=CC(C(N)=O)=CN21,3.2,-2,0.66,nt
CCc1nc(OCc2ccccc2)c2sc3nc4c(cc3c2n1)COC(C)(C)C4,-1.4,18,0.65,nt
Cc1cc(C)c2nc(SCC(=O)N3CCCCC3)c(C#N)cc2c1,3.5,7,0.76,nt
CCc1nnc(NC(=O)c2ccc3c(c2)C(=O)N(CC(C)C)C3=O)s1,2.6,5,0.69,nt
COc1ccc2[nH]cc(C(=O)CN3CCCCC3C)c2c1 (centres undefined),-1.6,-13,0.76,nt
COc1ccc(-c2cc(C(=O)Nc3cccc(C(C)=O)c3)no2)cc1,1.6,-12,0.82,nt
O=C(CSCc1c(F)cccc1Cl)NCC1CCCO1 (centres undefined),1.0,-6,0.73,nt
O=C(Nc1ccc(S(=O)(=O)Nc2nccc(C3Cc4ccccc4C(=O)O3)n2)cc1)c1ccccc1 (centres undefined),-0.6,-10,0.71,nt
Cc1ccc2cc(CN(Cc3cccs3)Cc3nnnn3CC3CCCO3)c(=O)[nH]c2c1C (centres undefined),4.0,40,0.68,nt
NC(=O)C1CCN(C(=O)CSc2nc3ccccc3o2)CC1,3.2,-4,0.73,nt
COc1ccc(CN2C(=O)CN(C3CCCCCC3)C(=O)C2c2ccc(OC)c(OC)c2)cc1 (centres undefined),-0.1,-4,0.74,nt
Cc1ccc(S(=O)(=O)N2C(=S)SCC2(C)C)cc1,-3.9,31,0.73,nt
COc1cc(-c2noc(CCCC(=O)NC3CCCCC3)n2)cc(OC)c1OC,1.0,12,0.66,nt
COc1ccc2c(c1)c(C(O)CN1CCC3(CC1)OCCO3)c(C)n2C (centres undefined),0.4,2,0.74,nt
CCOC(=O)c1[nH]c2ccc(OC)cc2c1NC(=O)C(C)N1CCSCC1 (centres undefined),-44,32,0.76,nt
CCOC(=O)N1CCN(c2ncnc3c2cnn3-c2ccc(OC)cc2)CC1,0.4,3,0.75,nt
Cc1ccc(-c2cnc(C3CC3)o2)cc1S(=O)(=O)Nc1ccccc1,0.1,15,0.68,nt
CC1(C)CC(=O)C(C=NCCN2CCN(C(=O)NC34CC5CC(CC(C5)C3)C4)CC2)=C(O)C1,-0.1,11,0.76,nt
Cc1ccc(-c2nn(C)c(=O)c3ccccc23)cc1CNC(=O)Cn1nc(-c2ccccc2)c2ccccc2c1=O,6.4,8,0.74,nt
Cc1cc(C)n(-c2nc3sc4c(c3c3nnc(SCC(N)=O)n23)CC(C)(C)OC4)n1,-55,-6,0.71,nt
Cc1ccc(-n2nnnc2SCC(=O)N2CCc3ccccc3C2)cc1,11,5,0.69,nt
COc1cc(NC(=O)c2cc(-c3cccs3)on2)cc(OC)c1OC,0.0,-5,0.65,nt
O=C(CSc1ccc2nnc(-c3cccc(F)c3)n2n1)NCC1CCCO1 (centres undefined),-29,-5,0.69,nt
COc1ccc(CCNC(=O)C2CCCN(c3nn4c(=O)cc(C)nc4s3)C2)cc1OC (centres undefined),-0.7,-9,0.71,nt
COc1ccc(CCN(C(=O)c2ccccc2)C2=CC3CCC(C2)N3C)cc1OC (centres undefined),3.2,-6,0.71,nt
CC(=O)c1cccc(NC(=O)Cc2cccs2)c1,3.8,-8,0.62,nt
CC1CCN(c2nc3c(c(=O)[nH]c(=O)n3C)n2CCSc2nc3ccccc3o2)CC1,1.9,1,0.73,nt
CCOc1ccc2c(c1)n([O-])c1c([n+]2=O)CCCC1,-53,6,0.7,nt
COc1ccc(CCn2c(C)cc(C(=O)CSc3nc(N)cc(=O)[nH]3)c2C)cc1,-0.6,-16,0.75,nt
O=C(O)CCC(=O)Nc1ccc(N=Nc2ccccc2)cc1,16,-14,0.7,nt
CCN(CC)CCCN1C(=O)C(O)=C(C(C)=O)C1c1cccc(OC)c1 (centres undefined),-0.7,2,0.68,nt
CN(C(=S)Nc1ccc(F)cc1)C1(c2ccccc2Cl)CCCCC1=O (centres undefined),0.6,12,0.71,nt

# Seven entries already listed, sorted by length of the SMILES, descending.
SMILES,UCH37 inh,T cruzi repl,E coli growth,Bfl-1 A1 inh
Cc1ccc(-c2nn(C)c(=O)c3ccccc23)cc1CNC(=O)Cn1nc(-c2ccccc2)c2ccccc2c1=O,6.4,8,0.74,nt
COc1ccc(CCn2c(C)cc(C(=O)CSc3nc(N)cc(=O)[nH]3)c2C)cc1,-0.6,-16,0.75,nt
COc1ccc(CCN(C(=O)c2ccccc2)C2=CC3CCC(C2)N3C)cc1OC (centres undefined),3.2,-6,0.71,nt
COc1cc(-c2noc(CCCC(=O)NC3CCCCC3)n2)cc(OC)c1OC,1.0,12,0.66,nt
COc1ccc2c(c1)c(C(O)CN1CCC3(CC1)OCCO3)c(C)n2C (centres undefined),0.4,2,0.74,nt
COc1cc(NC(=O)c2cc(-c3cccs3)on2)cc(OC)c1OC,0.0,-5,0.65,nt
Cc1ccc(-n2nnnc2SCC(=O)N2CCc3ccccc3C2)cc1,11,5,0.69,nt

# The list continues.
SMILES,UCH37 inh,T cruzi repl,E coli growth,Bfl-1 A1 inh
CCCSc1ncc(Cl)c(C(=O)Nc2ccc(S(=O)(=O)N3CC(C)OC(C)C3)cc2)n1 (centres undefined),3.3,22,0.72,nt
C/C=C/c1ccc(OCCCCN2C(=O)NC(C)(C)C2=O)c(OC)c1,3.7,-10,0.68,nt
CCCc1cc(=O)oc2cc(OCC(=O)OC)cc(OCC(=O)OC)c12,-44,-4,0.75,nt
COc1cccc(-c2csc(N3CCN(C(=O)C4CCCCC4)CC3)n2)c1,-2.5,5,0.66,nt
CCN(Cc1cc2ccc(C)cc2[nH]c1=O)C(=O)c1cccnc1,-1.1,-20,0.7,nt
c1nc(NCCN2CCOCC2)c2c3c(sc2n1)CCCCC3,1.1,-2,0.67,nt
CCC1=NN2C(=N)/C(=C\c3cccn3-c3ccc(Br)cc3)C(=O)N=C2S1,8.0,-8,0.72,nt
CCCCCn1c(=O)c(-c2nc3ccccc3c(=O)[nH]2)c(O)c2ccccc21,-5.8,0,0.66,nt
C=CCn1cc(C(=O)NCc2ccc3c(c2)OCO3)c(=O)c2cc(S(=O)(=O)N(CC)CC)ccc21,-0.6,27,0.74,nt
O=C(CS(=O)CC(=O)Nc1ccc(Cl)cc1)NCC1OCCc2ccccc21 (centres undefined),2.1,2,0.69,nt
O=C1C=C(N(CCO)Cc2ccccc2)c2ccccc2C1=O,92*,78*,0.67,nt
CC1Cc2ccccc2N1C(=O)CSc1nnc(Cc2ccccc2)n1CCc1ccccc1 (centres undefined),-5.1,33,0.76,nt
CCCC(=O)Nc1cccc(NC(=O)CN2CCN(c3ccccc3OC)CC2)c1,1.8,-3,0.76,nt
COC(=O)c1cn(NC(=O)C2CCC(C(C)(C)C)CC2)c(=O)c2ccccc12 (centres undefined),-1.9,nt,0.72,0.3
COc1ccc(-c2[nH]nc3c2C(c2ccc(OC(=O)N4CCOCC4)cc2)C(C#N)=C(N)O3)cc1 (centres undefined),4.4,nt,0.69,-0.4
COCCn1c(=S)[nH]c2cc(C(=O)N3CCC(C(N)=O)(N4CCCCC4)CC3)ccc2c1=O,6.6,nt,0.72,-1.4
CC(=O)NC1(c2nnnn2CCOC(=O)Nc2ccc(Cl)cc2)CCCCC1,-0.7,nt,0.72,1.7
COc1cc(C(=S)N2CCCCC2)ccc1O,2.1,nt,0.67,-0.2
Cc1ccnc(SCCn2c(N3CCOCC3)nc3c2c(=O)[nH]c(=O)n3C)n1,1.7,nt,0.79,0.1
COc1ccc(N2CCN(C(=O)CN=C3NS(=O)(=O)C(c4ccc(C)cc4)=C3C)CC2)cc1,2.8,nt,0.67,-0.4

# Rewritten with values under each structure: part of the list above
# Below each compound – UCH37 inh | T cruzi repl | E coli growth | Bfl-1 A1 inh
CCCSc1ncc(Cl)c(C(=O)Nc2ccc(S(=O)(=O)N3CC(C)OC(C)C3)cc2)n1 (centres undefined)
    3.3 | 22 | 0.72 | nt
C/C=C/c1ccc(OCCCCN2C(=O)NC(C)(C)C2=O)c(OC)c1
    3.7 | -10 | 0.68 | nt

# 4 compounds out of the list above, sorted by the number in UCH37 inh, largest number first:
SMILES | UCH37 inh
COCCn1c(=S)[nH]c2cc(C(=O)N3CCC(C(N)=O)(N4CCCCC4)CC3)ccc2c1=O | 6.6
c1nc(NCCN2CCOCC2)c2c3c(sc2n1)CCCCC3 | 1.1
CCN(Cc1cc2ccc(C)cc2[nH]c1=O)C(=O)c1cccnc1 | -1.1
CC1Cc2ccccc2N1C(=O)CSc1nnc(Cc2ccccc2)n1CCc1ccccc1 (centres undefined) | -5.1

# Next records follow:
SMILES,UCH37 inh,T cruzi repl,E coli growth,Bfl-1 A1 inh
CCSc1nnc([C@@H]2CCCN2C(=O)OC(C)(C)C)o1,2.0,nt,0.78,-0.1
CC(C)OC(=O)c1c(N)sc2c1CCCC2,6.0,nt,0.7,0.6
O=C(c1cccc(N2C(=O)C3CC=CCC3C2=O)c1)N1CCN(c2ccccc2)CC1 (centres undefined),3.7,nt,0.69,-0.9
CC(=O)N1CCc2cc(S(=O)(=O)NC(CC(C)C)C(=O)Nc3ccc4c(c3)OCCO4)ccc21 (centres undefined),1.6,nt,0.71,1.6
Cc1ccc(C)n1Cc1ccc(C(=O)O)cc1,30*,nt,0.72,0.0

# Assay outcomes as filed in PubChem BioAssay.
